Assay outcomes (PubChem BioAssay)
RE007 growth inh – less growth of the S. pombe RE007 Vpr strain | Potency, µM (titrated, usually from 92.2 µM), for inactives: at the top dose activity change, negative = less growth | 360,000 compounds, 0.21% hits | S. pombe RE007 Vpr strain, BacTiter-Glo ATP luminescence, 24 h; control for the full effect not named in the record; active = well fitted falling curve with a large enough effect; inconclusive = small, poorly fitted or top-dose-only effect; inactive = no such curve, though single readings can be large or run the other way;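 further: on the % scale 0 is the no-effect control and ±100 the full control effect; nearly all actives have a fitted effect of over 50% in size; the assay follows cell death caused by Vpr and the record does not say whether a fall means rescue or toxicity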
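Fission yeast strain RE007, carrying one chromosomally integrated HIV-1 vpr copy, was seeded at OD 0.01 in PMG+AL medium with 23 nL pinned compound. After 24 h at 30 °C and 99% humidity, viability was read by BacTiter-Glo luminescence.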
StopGo reporter – lowers the luciferase signal of an FMDV 2A StopGo reporter. human cells with a luciferase reporter of 2A StopGo recoding; control for the full effect not named in the record. Potency, µM (highest dose often 57.9 µM), for inactives: top-dose signal change, negative = less light. 410,000 compounds, 1.2% hits; active = well fitted falling curve with a large enough effect; inconclusive = small, poorly fitted or top-dose-only effect; inactive = no such curve, though single readings can be large or run the other way; tested in HEK293T cells; further: on the % scale 0 is the no-effect control and ±100 the full control effect; nearly all actives have a fitted effect of over 45% in size; luciferase light after 4 h
NS1 function inh – influenza NS1 inhibition. Potency, µM (series often up to 46.1 µM), without a hit: at the top dose activity, positive = more growth. AID 2326. S. cerevisiae slowed by influenza A NS1, growth recovery by OD600. 270,000 compounds, 0.4% hits; further: actives are rising curves; nearly all actives have a fitted effect of over 50% in size
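Compounds were scored for reversing the slow growth caused by influenza A NS1 in S. cerevisiae, measured by optical density at 600 nm. Assay medium contained 2% galactose at pH 6.0; NS1-free yeast of the same strain were the positive control.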
Lassa entry inh – blocks Lassa virus binding to or entry into cells | Lassa virus pseudotype entry inhibition, cell reporter; control for the full effect not named in the record | Potency, µM (series often up to 37.9 µM), for the others: at the highest dose activity change, negative = inhibition, most hits filed as inhibitors | 300,000 compounds, 1.2% hits; active means well fitted inhibition curve with a large enough effect; inconclusive means small, poorly fitted or top-dose-only effect, or effect the other way; inactive means flat fitted curve, though single readings scatter; tested in HEK293 cells; further: on the % scale 0 is the no-effect control and ±100 the full control effect; nearly all actives have a fitted effect of over 50% in size; luciferase read-out
SARS PLP yeast – SARS-CoV PLP inhibition in yeast | S. cerevisiae expressing SARS-CoV PLpro, growth rescue; control for the full effect not named in the record | Potency, µM (series often up to 32.9 µM), for inactives: top-dose activity, positive = growth rescue | 330,000 compounds, 0.19% hits | AID 485353; further: 0% is about no effect; nearly all actives have a fitted effect of over 55% in size; growth read by luminescence after 48 h
MARV entry inh – blocks Marburg virus binding to or entry into cells; AID 540276; Potency, µM (highest dose often 37.8 µM), inactives show at the top dose activity change, negative = inhibition, hits mostly inhibitors; 300,000 compounds, 1.8% hits; Marburg virus pseudotyped entry inhibition, cell reporter; control for the full effect not named in the record; about a third of the inactives were read at about 46 µM; active = well fitted inhibition curve with a large enough effect; inconclusive = small, poorly fitted or top-dose-only effect, or effect the other way; inactive = flat fitted curve, though single readings scatter; tested in HEK293 cells; about a fifth of its hits are not listed in these tables; further: on the % scale 0 is the no-effect control and ±100 the full control effect; luciferase read-out
Cruzain inh Det – blocks cruzain activity in presence of Triton detergent; P25779; purified cruzain, Z-FR-AMC fluorescence, 0.01% Triton; Potency, µM, without a hit: max response, negative = inhibition, hits mostly inhibitors; 200,000 compounds, 0.43% hits; AID 1478; active means well fitted curve in the direction sought with a large enough effect; inconclusive means small, poorly fitted or top-dose-only effect, or another doubt; inactive means no such curve, though single readings can be large; an effect the other way counts as inactive or inconclusive;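 further: plate controls were neutral wells for no effect and buffer without enzyme for full effect; nearly all actives have a fitted effect of over 40% in size; top concentration of the series not given in the record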
Target sequence (P25779 123-467 limits assumed): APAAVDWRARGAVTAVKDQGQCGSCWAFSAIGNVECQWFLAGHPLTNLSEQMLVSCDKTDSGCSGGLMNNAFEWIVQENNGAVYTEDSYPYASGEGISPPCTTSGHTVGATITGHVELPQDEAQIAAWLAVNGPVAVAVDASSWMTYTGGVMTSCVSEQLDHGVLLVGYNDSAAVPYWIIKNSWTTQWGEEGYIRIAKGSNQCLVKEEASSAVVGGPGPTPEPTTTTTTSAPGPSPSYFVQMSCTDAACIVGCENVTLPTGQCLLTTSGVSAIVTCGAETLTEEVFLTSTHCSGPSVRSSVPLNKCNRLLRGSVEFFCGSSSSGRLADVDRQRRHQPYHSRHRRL
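Cysteine protease activity tested under reducing, mildly acidic conditions (100 mM sodium acetate pH 5.5, 5 mM DTT) plus 0.01% Triton X-100. Cruzain 1.5 nM; substrate Z-FR-AMC 2 uM; 15 min compound preincubation at room temperature.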
Cruzain inh noDet – inhibitors of Trypanosoma cruzi cruzain without detergent. Potency, µM, for the others: max response, negative = inhibition, most hits filed as inhibitors. 200,000 compounds, 2.3% hits. P25779. purified cruzain, Z-FR-AMC fluorescence, no detergent. AID 1476; active means well fitted curve in the direction sought with a large enough effect; inconclusive means small, poorly fitted or top-dose-only effect, or another doubt; inactive means no such curve, though single readings can be large; an effect the other way counts as inactive or inconclusive;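 further: plate controls were enzyme without inhibitor for no effect and buffer without enzyme for full effect; nearly all actives have a fitted effect of over 40% in size; top concentration of the series not given in the record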
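Purified cruzain at 1.5 nM, pre-incubated 15 min with compound at room temperature in 100 mM sodium acetate pH 5.5, 5 mM DTT, 0.00005% Triton X-100. Reaction started with 2 uM Z-FR-AMC; AMC fluorescence increase over 60 s gives rate.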
* hit, by the source's call; ? = inconclusive; . = no result given; & = joins results of further samples; [ ] = another dose, or the depositor's remark. Unless noted, the call rests on the fitted dose curve; in most records, active means well fitted rising curve with a large enough effect; inconclusive means small, poorly fitted or top-dose-only effect; inactive means no such curve, though single readings can be large or run the other way. Potency means the concentration at half of the fitted maximal effect.

SMILES	RE007 growth inh	StopGo reporter	NS1 function inh	Lassa entry inh	SARS PLP yeast	MARV entry inh	Cruzain inh Det	Cruzain inh noDet
C/C=C(/C)C(=O)Nc1cccc(C2=NOC3(C2)C[C@@H](C(N)=O)N(C(=O)c2ccc(OC)cc2)C3)c1 (stereo partly specified)	4%	-7%	-5%	.	-1%	.	.	.
COc1ccc(-c2cc(C)no2)cc1S(=O)(=O)N1CCN(c2cccc(C)c2)C(C)C1 (stereo unspecified)	6%	?	2%	?	-2%	.	1.1%	-1%
Cc1ccc2c(c1)C(=O)OC(C(=O)Nc1ncc(Cc3ccc(C(C)C)cc3)s1)C2 (stereo unspecified)	.	-18%	.	9%[46.1 µM]	.	?	-1.6%	13%
CC(NC(=S)NC1CCCCC1)c1ccccc1 (stereo unspecified)	1%	-7%	-53%	.	7%	.	.	.
COc1ccccc1N=c1oc2c(OC)cccc2cc1C(=O)NCc1ccco1	4%	0%	9%	?	11%	?	2.8%	-13%
CC(C)(C)NC(=O)C(=O)NC(=O)c1c(F)cccc1Cl	-1%	-1%	2%	2%[46.1 µM]	0%	3%[46.1 µM]	.	.
O=C1C2C3C=CC(C3)C2C(=O)N1CCN1CCN(Cc2ccc([N+](=O)[O-])cc2)CC1 (stereo unspecified)	12%	-22%	4%	.	14%	.	.	.
CC(C)c1ccc(NC(=O)Cn2ncn3c(cc4ccccc43)c2=O)cc1	12%	1%	?	1%[46.1 µM]	-1%	-8%[46.1 µM]	.	.
CC1([N+](=O)[O-])COC2(CCCCC2)OC1	0%	14%	.	25%[46.1 µM]	.	0%[46.1 µM]	.	.
CC1=CC(C)(C)NC(=S)N1c1ccc2ccccc2c1	3%&-3%	-3%	7%	-9%[46.1 µM]	?	-34%[46.1 µM]	-0.4%	-22%
O=C(Cc1ccc(NC2=NC3CS(=O)(=O)CC3S2)cc1)NCCc1ccccc1 (stereo unspecified)	-6%	-10%	8%	.	-3%	.	.	.
CCCOc1ccc(CSC(CC(=O)O)C(=O)O)cc1 (stereo unspecified)	1%	5%	12%	2%	2%	17%	6.1%	-7%
CCOC(=O)c1[nH]c(C)c(C(=O)NC)c1C	7%	-22%	4%	3%	-7%	2%	-0.2%	16%
COc1ccccc1CCNC(=O)Cc1c(C)c2cc(Cl)c(O)cc2oc1=O	.	-15%	.	-2%[46.1 µM]	.	0%[46.1 µM]	7.9%	?
COc1ccc(NC(=O)CSc2nc3ccccc3nc2N2CCCCC2)cc1	-8%	-27%&-8%	8%	16%[46.1 µM]	?	-17%[46.1 µM]	-3.0%	-12%
COCCCNC(=O)CN1C(=O)/C(=C/c2ccccc2)Sc2ccccc21	21%	-7%	-34%	.	1%	.	.	.
COc1cc(OC)cc(C(=O)NNC(=O)CCC(=O)c2cc(C)sc2C)c1	-2%	-7%	.	1%	6%	?	.	.
CC1(C)Oc2ccc3ccc(=O)oc3c2/C(=C/NC2CCCCC2)C1=O	-13%	0%	8%	?	-6%	?	-12%	-7%
COc1cccc(CNC(=O)C2CCN(S(=O)(=O)N3CCC4(CC3)OCCO4)CC2)c1	-16%	-18%	-23%	-4%&0%	9%	?	0.5%	6%
COc1ccc(C2C(C#N)=C(N)Oc3cc(O)ccc32)cc1 (stereo unspecified)	11%	7%	.	19%[46.1 µM]	.	0%[46.1 µM]	.	.
COc1ccc(-n2nc(C(=O)Nc3cccc(Cl)c3)c3c4ccccc4n(C)c3c2=O)cc1Cl	.	-16%	.	?	.	25%[46.1 µM]	0.4%	-5%
CC(=O)Oc1ccc(CCC(C)OC(C)=O)cc1 (stereo unspecified)	-2%	14%	3%	?	?	-2%	5.0%	-2%
CC1(C)OC(=O)C(=CNn2cnc3ccccc3c2=O)C(=O)O1	0%	.	1%	16%	-2%	3%	-0.9%	8%
CS(=O)(=O)c1ccc(NCCN2CCOCC2)c([N+](=O)[O-])c1	-11%	-3%	-5%	-10%[46.1 µM]	2%	10%[46.1 µM]	.	.
COc1ccc(CCNC(=O)C2CCCN(c3nc4ccccc4s3)C2)cc1OC (stereo unspecified)	9%	-8%	-7%	27%	-5%	-29%[46.1 µM]	.	.
COC(=O)[C@@H](Cc1ccccc1)NC(=O)NCCc1ccc(OC)c(OC)c1	-4%	-14%	6%	.	-1%	.	.	.
CC(=O)Oc1ccc2occ(C(=O)c3cccs3)c2c1	-27%	41%[activator]	-122%	?	-9%	12%	-2.9%	-29%
CCOc1ccc(CCNC(=O)Cn2nc(C)n3cccc3c2=O)cc1OCC	14%	-5%	0%	.	-3%	.	.	.
COc1ccc(Oc2ccc(C(F)(F)F)cc2NC(=O)c2ccc(C)cc2)cc1	2%	-7%	2%	.	-3%	.	.	.
COc1cc2c(cc1NC(=O)C(c1ccccc1)c1ccccc1)CCCC2	22%	-19%	12%	?	3%	?	2.1%	?
COc1ccc(OC(=O)N2CCOCC2)cc1	0%	43%[activator]	9%	.	-7%	.	.	.
CCC(C)NC(=O)Cn1c(=O)n(-c2ccc(C)c(C)c2)c(=O)c2c3c(sc21)CCCCC3 (stereo unspecified)	.	-13%	.	-4%[46.1 µM]	.	-6%[46.1 µM]	-1.0%	-5%
NC(=O)c1ccc(/C(N)=N/S(=O)(=O)c2cc(C(F)(F)F)cc(C(F)(F)F)c2)cc1	3%	-8%	22%	-14%	-1%	-15%[46.1 µM]	.	.
Cn1c(CCN2CCN(c3ccccn3)CC2)nc2cc(NC(=O)COc3ccc(Cl)cc3)ccc21	19%	11µM*	-35%	.	-6%	.	.	.
O=S(=O)(c1ccccc1)c1nnn2c1nc(NCc1ccccc1)c1cc(Cl)ccc12	.	9%	.	.	.	?	-1.8%	-8%
CCOc1cccc(C(=O)Nc2ccc3oc(-c4ccc(C(C)(C)C)cc4)nc3c2)c1	.	?	.	3%[46.1 µM]	.	.	-1.3%	?
CCOc1ccc(CNC(=O)c2ccc(Sc3ccc(Cl)cc3)c(NC(C)=O)c2)cc1	-2%	-30%&-2%	8%	?	-53%	?	0.2%&-9.6%	-7%&2%
COC(=O)c1scc(-c2ccccc2)c1S(=O)(=O)Nc1cccc(C)c1C	.	25%	.	29%[46.1 µM]	.	.	-4.3%	-3%
CCOC(=O)N1CCN(C(=O)CN(C)S(=O)(=O)c2ccc(F)cc2)CC1	7%	10%	-2%	-2%	0%	0%[46.1 µM]	.	.
CCNS(=O)(=O)c1ccc(CCC(=O)N2CCN(c3cccc(Cl)c3)CC2)cc1	4%	28µM*	-20%	?	-1%	?	.	.
CCN(CC)C(=O)c1ccc(O)c(OC)c1	-9%[18.4 µM]	0%	3%&-9%	-7%&-2%	-2%	?	1.6%&-2.1%&1.4%	7%&2%&6%
COc1ccc(-n2c(/C=C/c3ccc(O)c(OC)c3)nc3ccccc3c2=O)cc1	-4%	-22%	6%	.	-5%	.	.	.
CC(=O)Nc1ccc(/C=N/NC(=S)NC(C)C)cc1	-13%	-7%	-1%	?	0%	17%[46.1 µM]	.	.
COc1ccc(CN(Cc2ccco2)C(=O)COc2ccccc2Cl)cc1	.	0%	.	?	.	-28%[46.1 µM]	-6.3%	-5%
CC(=O)N(c1ccc2oc(=O)sc2c1)S(=O)(=O)c1cccs1	-2%	-29%	-1%	14%	-9%	20%	2.0%	-10%
COc1cc(C(=O)Nc2c(C)cc(C)cc2C)c(Br)c(OC)c1OC	-7%	-19%	.	3%	-10%	-7%[46.1 µM]	.	.
CCOc1cc(C(=O)N/N=C/C(Br)=C/c2ccccc2)cc(OCC)c1OCC	2%	-15%	6%	?	-17%	?	-8.2%	-3%
O=C(Nc1sc2c(c1C(=O)NCc1ccccc1)CCCC2)c1cc(=O)c2cc(Cl)ccc2o1	.	-9%	.	-8%[46.1 µM]	.	.	-0.6%	1%
CCc1ccccc1Nc1cc(C(=O)NCCc2ccccc2)c2ccccc2n1	.	-10%	.	-23%[46.1 µM]	.	1%[46.1 µM]	-11%	?
N#Cc1ccccc1OCC(=O)OCC(=O)NC1CCCC1	11%	-13%	.	0%	3%	?	.	.
Cc1c(OCC(=O)N[C@@H](Cc2c[nH]c3ccccc23)C(=O)O)ccc2c1oc(=O)c1ccccc12	10%	-14%	14%	.	-5%	.	.	.
CCCCC1C(=O)NN(c2ccccc2)C1=O (stereo unspecified)	35%	-6%	.	0%[46.1 µM]	.	?	.	.
COc1ccc(Cl)cc1N(C)C(=O)CCNC(=O)Cn1cnc2ccccc2c1=O	-2%	.	5%	-11%	-3%	-21%	1.3%	8%
O=C(NCc1ccccc1)C12CC3CC(CC(C3)C1)C2	18%	7%	-11%	3%	4%	-5%	6.4%	-1%
COc1ccc(N2CC(C(=O)OCC(=O)Nc3ccccc3C)CC2=O)cc1 (stereo unspecified)	1%	-9%	1%	2%[46.1 µM]	3%	-21%[46.1 µM]	.	.
COC(=O)C1=C(C)NC(=O)/C1=C\c1cc(C)n(-c2ccccc2C)c1C	16µM*	-1%	13%	?	-19%	-4%	-6.7%	2%
COc1cc(NC(=O)c2ccc(C)cc2)c(OC)cc1NC(=O)CN1CCCCC1	0%	-16%	-6%	-2%	-3%	-13%	-4.3%	7%
O=C(NCCCN1CCOCC1)C(=O)N/N=C/c1c2ccccc2cc2ccccc12	-20%	-16%	7%	?	?	?	-7.3%	4%
CCCCCCSc1nsc(NC(=O)CCC)n1	8%	18%	8%	-12%	-1%	20%[46.1 µM]	.	.
O=C(OCCSCCOC(=O)C1CC=CCC1)C1CC=CCC1 (stereo unspecified)	-17%	-6%	.	23%	.	?	.	.
Later entries:
SMILES	RE007 growth inh	StopGo reporter	NS1 function inh	Lassa entry inh	SARS PLP yeast	MARV entry inh	Cruzain inh Det	Cruzain inh noDet
COc1cc(/C=C2\SC(=S)N(Nc3ccccc3)C2=O)cc(OC)c1OC	30%	?	1%	?	-4%	-12%	-1.1%	14%
O=C(Nc1ccc(C(F)(F)F)cc1)c1cccn(Cc2ccc3c(c2)OC(F)(F)O3)c1=O	14%	?	1%	-12%	-4%	?	2.2%	3%
Fc1ccc(Cn2nnnc2CN2CCc3ccccc3C2)cc1	-3%	?	-61%	-15%	0%	?	5.3%	0%
Cc1ccnc(NC(=O)CCc2c(C)nc3ncnn3c2C)c1	4%	27%	?	24%	-5%	12%	1.9%	4%

Outcome played no part in choosing rows. About 4.7% of those tested had a hit in this group.
